From PubChem
ALR inh = inhibitors of human ALR sulfhydryl oxidase, primary screen, biochemical, H2O2 detection, HRP-luminol luminescence, single point | inhibition, % (no concentration beside the values) | 290,000 tested, 3.8% active | purified ALR, DTT oxidation | FAD-linked sulfhydryl oxidase ALR (Homo sapiens), P55789;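 active means mean and each replicate at 75% or more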;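 further: stock transfer was 7.5 nL into about 7.5 µL; 0% = neutral wells and 100% = wells with inactivated enzyme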
Target sequence (P55789 whole entry, looked up): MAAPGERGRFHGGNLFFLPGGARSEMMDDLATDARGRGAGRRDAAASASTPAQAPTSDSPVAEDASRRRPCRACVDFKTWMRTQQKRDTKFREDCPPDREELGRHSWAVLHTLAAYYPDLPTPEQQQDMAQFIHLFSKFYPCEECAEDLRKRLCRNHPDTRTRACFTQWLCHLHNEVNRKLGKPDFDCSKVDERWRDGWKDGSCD
E coli growth = E. coli growth inhibition, primary screen, OD600; 330,000 tested, 0.21% active; Escherichia coli growth, 23 h; active compounds read low; OD600 absorbance (no concentration beside the values);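 active means OD600 absorbance below the run mean of sample wells minus 3.6 SD, in any replicate, cut at about 0.56 in these data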;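 further: stock transfer was 300 nL into about 60 µL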
FGF22 binding = binders of human FGF22 protein, primary screen, FGF22 synaptogenesis inhibitor project, biophysical, thermal shift, single point; Fibroblast growth factor 22 (Homo sapiens), Q9HCT0; recombinant FGF22 thermal shift, SYPRO orange fluorescence; percent of sucrose octasulfate shift, DMSO zero; calls only at 9.99 µM; 340,000 tested, 1.5% active; AID 651658, 2012;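 active means melting point raised past a set limit in the mean and every replicate; three in four hits are not shown here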
Target sequence (Q9HCT0 whole entry, looked up): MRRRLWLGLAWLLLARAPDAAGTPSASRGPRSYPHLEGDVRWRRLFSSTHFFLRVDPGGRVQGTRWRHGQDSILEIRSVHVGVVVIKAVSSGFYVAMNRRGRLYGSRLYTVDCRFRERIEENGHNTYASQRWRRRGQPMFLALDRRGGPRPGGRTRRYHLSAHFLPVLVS
HNF4A DNA FP = change in binding of human HNF4A to DNA, primary screen, biochemical, fluorescence polarization, FITC-DNA; 360,000 tested, 0.3% active; Hepatocyte nuclear factor 4-alpha (Homo sapiens), P41235; AID 1224865, 2016; 1 h; activity change, % at 10 µM; in the data active means activity change above about 30%, passing the limit was not always enough;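 further: controls were the assay level and a saturating level of protein; the project sought stronger binding though the title names inhibitors; some compounds called inactive have numbers as strong as hits; positive values seem to mean higher polarization but the record does not say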
Ecoli rRNA inh = reduced GFP signal of wild-type E. coli, primary screen, bacterial rRNA inhibitor project, GFP/RFP fluorescence, OD600, single point. E. coli WT GFP vs humanized-ribosome RFP mutants, 24 h; active compounds read low; DMSO median 0, no signal -100. GFP signal change (wild-type ribosome), % (test concentration not listed). 350,000 tested, 1.6% active. AID 720706, 2013;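 active means significant combined selectivity score with lowered wild-type GFP, culture density cut under 30%, mutant RFP and density less affected; inactive means any of these conditions unmet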; further: one replicate is shown; some compounds called inactive have numbers as strong as hits
Vif TR-FRET = inhibitors of Vif binding to APOBEC3G peptide, primary screen, biochemical, TR-FRET, GST-Vif 1-94, biotin-A3G peptide, dose response retest (AID 1117319) | one-dose inhibition, %; IC50 in µM for titrated hits | 260,000 tested, 0.57% active | TR-FRET GST-Vif / biotin-A3G peptide binding; higher % means a stronger effect; test concentration not given here; strong numbers were not always called active | Virion infectivity factor (Human immunodeficiency virus type 1 group M subtype B (isolate …;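 active means above the screen mean plus three standard deviations and confirmed in dose response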;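 further: Vif residues 1-94 fused to GST binding biotinylated APOBEC3G peptide 110-148; 0% = full assay without inhibitor and 100% = GST in place of GST-Vif; retest series ran down from 100 µM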
MLL AF4-AF9 inh = inhibitors of AF4 peptide binding to AF9, primary screen, biochemical, AlphaScreen, biotin-AF4 peptide, FLAG-AF9, single point; inhibition, % at 10 µM; AID 651704, 2012; 350,000 tested, 0.47% active;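 active means every replicate reaching a set inhibition limit, whatever the replicate mean, cut at about 25% in these data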;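 further: 0% = plate neutral control median and 100% = total signal loss; the record names both 10 and 1 µM as test concentration; the first replicate is given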
Target sequence (P42568 whole entry, looked up): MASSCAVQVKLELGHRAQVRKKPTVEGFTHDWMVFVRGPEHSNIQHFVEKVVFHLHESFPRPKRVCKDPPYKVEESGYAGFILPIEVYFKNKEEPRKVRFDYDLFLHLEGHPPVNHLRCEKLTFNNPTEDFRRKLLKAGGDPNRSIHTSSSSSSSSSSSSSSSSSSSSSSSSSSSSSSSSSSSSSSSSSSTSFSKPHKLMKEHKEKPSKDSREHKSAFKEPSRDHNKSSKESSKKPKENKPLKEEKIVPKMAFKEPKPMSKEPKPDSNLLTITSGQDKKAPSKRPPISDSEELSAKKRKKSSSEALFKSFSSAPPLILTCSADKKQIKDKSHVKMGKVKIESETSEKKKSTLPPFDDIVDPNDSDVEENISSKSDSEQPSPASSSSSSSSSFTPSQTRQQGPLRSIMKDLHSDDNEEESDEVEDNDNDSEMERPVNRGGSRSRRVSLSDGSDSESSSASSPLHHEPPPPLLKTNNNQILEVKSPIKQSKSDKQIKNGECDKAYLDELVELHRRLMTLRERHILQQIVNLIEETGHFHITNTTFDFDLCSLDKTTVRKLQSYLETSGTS
Ecoli rRNA inh OD600 = also measured in Ecoli rRNA inh; calls as there; OD600 change, %; measured here: OD600 growth;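 optical density of the mix in the first replicate; 0 = DMSO median and -100 = no signal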
Ecoli rRNA inh RFP = also measured in Ecoli rRNA inh; calls as there; RFP signal change, %; measured here: RFP humanized mutant strains;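 first replicate; 0 = DMSO median and -100 = no signal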
The depositor's hits bear a star; i = inactive; · = no result given. Not all compounds are listed, so the mix of outcomes need not match the whole.

SMILES	ALR inh	E coli growth	FGF22 binding	HNF4A DNA FP	Ecoli rRNA inh	Ecoli rRNA inh OD600	Ecoli rRNA inh RFP	Vif TR-FRET	MLL AF4-AF9 inh
O=C(NCC1CCCN1S(=O)(=O)c1cccs1)c1ccccc1 (stereo not drawn)	·	0.66	i	0.3	1	10	1.9	-5%	-8.1
COc1ccc(OC)c(NC(=O)COC(=O)CN(C)S(=O)(=O)c2ccc(C)cc2)c1	-14	0.62	i	2.0	-4	-5	5.4	18%	2.8
Cc1c(C(=O)OC(C)C(=O)N(C)Cc2ccccc2)oc2ccccc12 (stereo not drawn)	2	0.69	i	-0.1	-5	-30	-2.1	·	-2.4
Cc1ccc(C(=O)O)cc1N1CCCC1=O	0	0.71	i	0.5	18	5	1.8	-7%	-3.9
CC1CCN(Cc2ccc(-c3nnn(CC(=O)NC4CCCCC4)n3)cc2)CC1	-10	0.67	i	-3.2	25	18	2.0	-6%	-4.7
O=C(C[C@H]1C=C[C@H](NC(=O)c2cccc(F)c2)[C@@H](CO)O1)NCCN1CCCC1	·	·	i	·	0	6	-0.8	·	-1.1
CCc1ccccc1NC(=O)CC1CS(=O)(=O)CC1CC(=O)Nc1ccccc1CC (stereo not drawn)	-2	0.64	·	-1.0	·	·	·	-11%	·
O=C(COc1ccc2c(-c3ccccc3)cc(=O)oc2c1)NC1CCS(=O)(=O)C1 (stereo not drawn)	23	0.68	i	2.2	9	4	0.5	·	·
Cc1ccc2cccc(OCC(=O)c3cc(C)n(Cc4ccco4)c3C)c2n1	·	0.68	i	·	-16	-2	25	·	0.0
N#Cc1c(NC(=O)COC(=O)C2CC3C=CC2C3)oc(-c2ccccc2)c1-c1ccccc1 (stereo not drawn)	-1	0.73	·	2.0	·	·	·	-1%	·
CC(=O)c1cccc(NC(=O)N2C3CCC2CC(NC(=O)C2CC2)C3)c1 (stereo not drawn)	-2	0.63	i	0.5	13	1	2.3	·	0.4
Cc1ccccc1OCCC(=O)OCC(=O)N(C)c1c(N)n(Cc2ccccc2)c(=O)[nH]c1=O	-1	0.71	i	3.4	13	14	-0.8	-4%	-1.0

Some of these compounds in order of their number in Ecoli rRNA inh RFP, smallest number first.
SMILES,Ecoli rRNA inh RFP
Cc1c(C(=O)OC(C)C(=O)N(C)Cc2ccccc2)oc2ccccc12 (stereo not drawn),-2.1
O=C(COc1ccc2c(-c3ccccc3)cc(=O)oc2c1)NC1CCS(=O)(=O)C1 (stereo not drawn),0.5
Cc1ccc2cccc(OCC(=O)c3cc(C)n(Cc4ccco4)c3C)c2n1,25

(further entries)
SMILES	ALR inh	E coli growth	FGF22 binding	HNF4A DNA FP	Ecoli rRNA inh	Ecoli rRNA inh OD600	Ecoli rRNA inh RFP	Vif TR-FRET	MLL AF4-AF9 inh
NS(=O)(=O)c1ccc(NC(=S)Nc2ccc(F)c(F)c2)cc1	12	0.58	i	5.5	7	-1	-2.5	-5%	-2.3
N#CCc1ccc(NC(=O)Nc2cccc(Cl)c2)cc1	-31	·	·	1.5	·	·	·	15%	·
COc1ccc(C(=O)OCC(=O)NC(=O)CCSc2ccccc2)cc1	0	0.72	i	0.6	0	0	1.3	·	-2.6
Cc1ccccc1C1C(C#N)=C2N=C(N)c3c(sc4c3CCCCC4)N2C2=C1C(=O)CC(C)(C)C2 (stereo not drawn)	-10	0.73	·	-26	·	·	·	13%	·
C=CCNC(=S)N/N=C/c1ccc(C(C)(C)C)cc1	·	·	i	-0.5	-56	-77	-21	·	6.3
COCCn1c(CN2CCN(c3cccc(Cl)c3)CC2)nc2c1c(=O)n(C)c(=O)n2C	10	0.65	i	4.3	-7	-18	-0.3	-1%	-3.6
CCNC(=O)C[C@@H]1C=C[C@@H](NC(=O)C2CC2)[C@H](CO)O1	·	·	i	·	2	3	-2.8	·	-2.2
COc1ccc(CC(=O)Nc2ccccc2C(=O)N2CCCC2)cc1	-4	0.74	i	-2.8	·	·	·	·	-0.3
O=C1CNC(=S)N1CCc1ccc(O)c(O)c1	100*	0.64	i	0.2	5	0	4.3	·	3.2
COCCCN1C(=O)C(O)=C(C(=O)c2ccco2)C1c1ccccc1 (stereo not drawn)	-1	0.75	·	1.4	·	·	·	-4%	·
O=C(COCc1cc(-c2ccc3c(c2)OCO3)on1)Nc1cccnc1	2	0.66	i	-0.7	-21	-26	-2.6	·	-11
CN1CCN(S(=O)(=O)c2cccc(C(=O)Nc3cc(Cl)ccc3N3CCOCC3)c2)CC1	·	0.65	i	3.9	-1	-4	1.8	7%	6.0

Entries of single compounds from above. Order of values: ALR inh, E coli growth, FGF22 binding, HNF4A DNA FP, Ecoli rRNA inh, Ecoli rRNA inh OD600, Ecoli rRNA inh RFP, Vif TR-FRET, MLL AF4-AF9 inh
O=C(COCc1cc(-c2ccc3c(c2)OCO3)on1)Nc1cccnc1 is entered as 2, 0.66, i, -0.7, -21, -26, -2.6, ·, -11
COCCCN1C(=O)C(O)=C(C(=O)c2ccco2)C1c1ccccc1 (stereo not drawn) is entered as -1, 0.75, ·, 1.4, ·, ·, ·, -4%, ·
COc1ccc(C(=O)OCC(=O)NC(=O)CCSc2ccccc2)cc1 is entered as 0, 0.72, i, 0.6, 0, 0, 1.3, ·, -2.6
C=CCNC(=S)N/N=C/c1ccc(C(C)(C)C)cc1 is entered as ·, ·, i, -0.5, -56, -77, -21, ·, 6.3

(list continues)
SMILES	ALR inh	E coli growth	FGF22 binding	HNF4A DNA FP	Ecoli rRNA inh	Ecoli rRNA inh OD600	Ecoli rRNA inh RFP	Vif TR-FRET	MLL AF4-AF9 inh
CN(C)C(=O)CSc1nnc(Cc2ccccc2)n1Cc1ccco1	-15	0.67	·	0.1	·	·	·	7%	·
C[C@H](CO)N1C[C@H](C)[C@H](CN(C)C(=O)C2CCCCC2)Oc2ncc(C#CC3(O)CCCC3)cc2C1=O	·	·	i	·	-2	5	-5.1	·	-2.9
Cc1cccc(N2CCN(C(=O)c3ccccc3NC(=O)C3CC=CCC3C(=O)O)CC2)c1 (stereo not drawn)	42	0.74	·	1.7	·	·	·	3%	·
Cc1cc(C)n(CCCNC(=O)c2ccco2)n1	·	0.66	i	1.5	5	8	-0.9	2%	-2.3
CC(C)(C)OC(=O)N1CCC(NC(=O)c2ncn(Cc3ccccc3)c2C(=O)NC2CCN(C(=O)OC(C)(C)C)CC2)CC1	-3	0.68	i	-4.5	16	-3	-0.7	·	7.1
Cc1ccc(C(=O)NCC(=O)OCC(=O)c2cc(C)n(Cc3ccco3)c2C)cc1	3	0.64	i	-2.5	-5	3	-2.8	·	3.4
CCC(=O)N(C)C[C@H]1Oc2ncc(C#Cc3ccccc3)cc2C(=O)N([C@H](C)CO)C[C@H]1C	·	·	i	·	-4	1	-4.0	·	-1.5
COc1ccc(NC(=O)Nc2ccc3c(c2)CC(=O)N([C@H](C)CO)C[C@@H](C)[C@@H](CN(C)C(=O)Nc2ccc(OC)cc2)O3)cc1	·	·	i	·	0	-5	-1.8	·	1.2
Fc1ccc(Nc2nc(-c3ccncc3)cs2)cc1	2	0.69	i	2.4	-4	-1	-2.1	-7%	-16
COc1ccc(N2CCN(S(=O)(=O)c3ccc4c(c3)NC(=O)CS4)CC2)cc1	-3	0.67	i	2.4	2	6	-2.8	·	0.9
O=C(Cc1ccccc1)Nc1ccccc1C(=O)O	·	0.7	·	-1.8	·	·	·	3%	·
O=C(Nc1ccc2c(c1)C(=O)OC2)c1ccc(F)cc1F	2	0.65	i	-1.1	10	8	-0.6	19%	-1.2
Oc1ccc(Cl)cc1-c1cc(C(F)(F)C(F)F)nc(-c2ccccc2)n1	0	0.77	·	-7.5	·	·	·	8%	·
Cc1cccc(N2CN(S(=O)(=O)c3cccc([N+](=O)[O-])c3)c3nc4ccccc4nc32)c1	·	0.74	i	1.2	6	11	0.3	0%	2.8
CC1Cc2ccccc2N1CC(=O)NCc1ccc2c(c1)OCO2 (stereo not drawn)	·	0.66	·	-1.2	·	·	·	18%	·
Cc1cc(C(=O)COC(=O)c2ccc(O)cc2)c(C)n1Cc1ccco1	1	0.69	i	-2.4	-21	-30	-13	8%	5.0
CSc1ccccc1-n1nnnc1SCc1ccccc1	-15	0.68	·	-1.1	-28	-28	-3.7	0%	·
COC(=O)c1cc(C#N)c(N2CC(C)OC(C)C2)nc1C (stereo not drawn)	-6	0.67	i	-1.4	-18	-21	-2.9	·	-1.0
CC(=O)n1cc([C@@H]2C=C(C(=O)N3CCN(Cc4ccc5c(c4)OCO5)CC3)O[C@H](OCCCCO)C2)c2ccccc21	0	·	i	4.6	2	5	2.2	1%	2.8
COC(=O)c1nnn(CC(=O)NC(=O)Nc2cccc(Cl)c2C)c1C(=O)OC	-6	·	i	2.8	1	6	0.8	·	-18
Cc1ccc(NC(=O)CSC2=C(C#N)C(c3ccc4c(c3)OCO4)CC(=O)N2)cc1C (stereo not drawn)	-4	0.76	i	2.9	1	4	-9.4	9%	-15
Cc1ccc(S(=O)(=O)C2CCCCC2=O)cc1 (stereo not drawn)	-11	0.7	i	2.6	8	8	-2.5	-1%	-2.5
Cc1ccnc(NC(=O)CCCNC(=O)c2ccc(Cl)cc2)c1	-5	0.65	i	-1.5	11	3	2.5	-2%	-0.3
CN1CCC(N(C)C(=O)CNC(=O)c2ccc(C(C)(C)C)cc2)CC1	-22	0.72	i	1.5	10	-6	-0.4	26%	-3.7
Cc1nc(C(=O)N2CCCC(C(=O)c3cccc(OC(C)C)c3)C2)cs1 (stereo not drawn)	-15	0.68	i	6.2	-7	-4	0.3	·	-3.4
C[C@@H]1CN([C@H](C)CO)C(=O)c2cccc(NC(=O)NC3CCCCC3)c2O[C@H]1CN(C)C	·	·	i	·	4	-1	1.0	·	-2.0
Cc1ccc(N=C2NC(=O)/C(=C\c3ccsc3)S2)c(C)c1	-2	0.64	i	3.2	-29	-47	5.4	0%	8.4
COc1cccc(N2CCN(C(=O)c3ccc(CS(=O)Cc4ccccc4Cl)o3)CC2)c1 (stereo not drawn)	52	0.6	i	0.8	-31*	-25*	-0.6*	·	8.0
Clc1ccc(-c2cnc3n2CCC3)cc1	-23	0.67	·	5.4	·	·	·	-2%	·
COCC(=O)N1CCC2(CC1)CN(C(=O)NC1CCCC1)[C@@H](CO)c1c2c2ccc(OC)cc2n1C	·	·	i	·	4	8	-2.7	·	-1.6
CC(C(=O)N(C)C)N(C#N)c1nc(N(C)C)nc(N(C)C)n1 (stereo not drawn)	-5	0.79	·	-2.1	·	·	·	1%	·
COc1ccc(NC(=O)CS(=O)(=O)c2ccc(F)cc2)cc1	·	0.64	i	2.2	10	3	2.4	·	-4.6
N#Cc1nc(-c2ccc(F)cc2)oc1N1CCN(C(=O)c2ccco2)CC1	0	0.73	i	-1.2	-6	-10	0.1	·	-0.9
CNC[C@H]1Oc2cc(-c3ccncc3)ccc2S(=O)(=O)N([C@@H](C)CO)C[C@H]1C	·	·	i	·	9	11	1.7	·	-2.2
CNS(=O)(=O)c1cccc(C(=O)NC2CCCc3ccccc32)c1 (stereo not drawn)	·	0.67	i	-0.7	4	5	-0.9	·	-0.6
